TRPML1 blocker = human mucolipin-1 channel inhibition; activity change, negative = inhibition, % (concentration not given with the values); AID 624415; Q9GZU1; 390,000 tested, 0.02% active; TRPML1-inducible cells, Ca2+ dye fluorescence, FDSS; stronger effect = lower value; inhibition of EC80 agonist-evoked calcium signal; in the data active means activity change below about -50%; inconclusive means about -30% to -50%; inactive means above about -30%;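 also: stimulus is agonist 54-4 at its EC80 concentration; % is scaled to controls: 0 for no effect and ±100 for the full control effect; compound concentration not given in the record; the text of the record puts the active cut at -80%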
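TRPML1-DL cells, Tet-induced overnight (~16 h, 37 °C) at 1,500 cells/well, were loaded with Ca8 no-wash dye plus quencher for 45-90 min at room temperature. Compounds were pinned during FDSS kinetic reading; agonist 54-4 at EC80 (4 uM final) then added.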
D2 ag = human D2 receptor agonism in beta-arrestin assay; P14416; DiscoveRx PathHunter D2 beta-arrestin, luminescence, 90 min; 100% = 57 uM dopamine signal; activation, % (concentration not given with the values); 360,000 tested, 0.084% active; AID 624465; in the data active = activation above about 40%; inconclusive = about 15% to 40%; inactive = below about 15%; also: compound concentration not given in the record; the text of the record calls up to 30% inactive
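DiscoveRx PathHunter D2 beta-arrestin cells (2,100/well) attached overnight, then compound-stimulated 90 min at 37 C in HBSS/10 mM HEPES/0.1% Tween-20 buffer; beta-galactosidase complementation read by luminescence after 1 h at ambient temperature. Dopamine 57 uM final (EC100) as control.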
TRPML1 ag = activates the human TRPML1 channel. Q9GZU1. 410,000 tested, 0.12% active. activation, % (no concentration beside the values). TRPML1-expressing cells, Ca2+ dye fluorescence, FDSS; host cell line not named in the record; reference of the full effect not given here; in the data active = activation above about 50%; inconclusive = about 30% to 50%; inactive = below about 30%; also: 0% is about no effect; the text of the record puts the active cut at 80%
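In this qHTS format, compounds were pin-transferred onto Ca8-dye-loaded TRPML1-DL cells induced with Tet overnight, and intracellular Ca2+ fluorescence was recorded kinetically for 110 s after a 10 s baseline. A subsequent 4uM final 54-4 (EC80) addition followed by a second 110 s read served as the antagonist phase.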
PINK1 expr mod = PINK1 expression modulation | Potency, µM (highest dose often 76.6 µM), for inactives: at the highest dose activation (PINK1 increase), usual class: activators | PINK1 immunofluorescence, high-content cytometry, 24 h | 410,000 tested, 0.2% active | AID 624263; active = well fitted activation curve with a large enough effect; inconclusive = small, poorly fitted or top-dose-only effect; inactive = flat fitted curve, though single readings scatter; cell line not stated here;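 also: potency is read from the fitted curve at half-maximal effect; % of control where 0% means no effect; nearly all actives have a fitted effect of over 65% in size; a mitochondrial uncoupler was the plate control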
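Compound titrations (5 concentrations, 24 h) on a stable cell line; DMSO and CCCP controls. Endpoint: fixed-cell PINK1 immunofluorescence with mitochondrial, cell and nuclear markers, scanned by microplate cytometer.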
Six1-Eya2 inh = Six1/Eya2 interaction inhibition. Q15475+O00167. AlphaScreen GST-Six1/His-Eya2 binding, biochemical; stronger effect = lower value; control for the full effect not named in the record. activity change, % (no concentration beside the values). 360,000 tested, 0.56% active. AID 651725; in the data active = activity change below about -65%; inconclusive = about -30% to -65%; inactive = above about -30%; also: % is scaled to controls: 0 for no effect and ±100 for the full control effect; compound concentration not given in the record
Target sequence (O00167 whole entry, looked up): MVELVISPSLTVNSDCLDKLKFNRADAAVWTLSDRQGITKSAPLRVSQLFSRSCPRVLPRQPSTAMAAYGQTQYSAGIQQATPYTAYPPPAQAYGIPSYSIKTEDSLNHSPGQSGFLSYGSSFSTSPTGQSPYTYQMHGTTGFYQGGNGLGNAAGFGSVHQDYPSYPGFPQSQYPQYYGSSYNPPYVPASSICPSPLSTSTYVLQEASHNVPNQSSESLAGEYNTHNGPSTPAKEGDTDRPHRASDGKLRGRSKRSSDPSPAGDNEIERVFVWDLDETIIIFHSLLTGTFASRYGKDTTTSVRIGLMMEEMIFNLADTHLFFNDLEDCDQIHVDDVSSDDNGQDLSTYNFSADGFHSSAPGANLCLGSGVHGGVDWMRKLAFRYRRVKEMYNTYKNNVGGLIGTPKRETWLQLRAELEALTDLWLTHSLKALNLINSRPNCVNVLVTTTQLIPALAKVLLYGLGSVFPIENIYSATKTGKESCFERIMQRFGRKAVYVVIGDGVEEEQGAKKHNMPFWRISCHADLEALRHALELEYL
Target sequence (Q15475 whole entry, looked up): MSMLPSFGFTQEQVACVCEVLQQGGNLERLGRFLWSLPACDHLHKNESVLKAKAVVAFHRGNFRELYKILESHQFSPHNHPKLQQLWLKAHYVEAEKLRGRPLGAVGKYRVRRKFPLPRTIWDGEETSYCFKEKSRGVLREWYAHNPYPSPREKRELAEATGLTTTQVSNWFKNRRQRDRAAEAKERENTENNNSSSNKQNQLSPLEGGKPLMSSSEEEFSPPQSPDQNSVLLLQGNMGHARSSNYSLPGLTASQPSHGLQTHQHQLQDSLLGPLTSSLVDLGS
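AlphaScreen with GST-Six1 and His-Eya2 (5X mix: 250 nM and 500 nM), glutathione donor and nickel acceptor beads; buffer 50 mM Tris pH 8.0, 300 mM NaCl, 1 mM TCEP; 1 h at 37 C in the dark.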
CtBP-E1A blk = inhibitors of CtBP/E1A interaction | AlphaScreen GST-E1A/His-CtBP binding, 1536-well; stronger effect = lower value; control for the full effect not named in the record | activity change, % (test concentration not listed) | 340,000 tested, 0.49% active; in the data active means activity change below about -65%; inconclusive means about -30% to -65%; inactive means above about -30%; also: % is scaled to controls: 0 for no effect and ±100 for the full control effect; compound concentration not given in the record
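Steps: dispense buffer (Tris pH 8.0, NaCl 300 mM, TCEP 1 mM, BSA, Tween 20); add 5X protein mix (GST-E1A, His-CtBP, 125 nM each); pin 23 nL compound; 2 h at 37 °C, dark; add 5X beads (50 ug/mL); 1 h; read.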
Numbers without * were called inactive; ? = inconclusive; · = no result given; [ ] = another dose, or the depositor's remark. Rows were taken by chance; overall some 1% were active at least once.

SMILES	TRPML1 blocker	D2 ag	TRPML1 ag	PINK1 expr mod	Six1-Eya2 inh	CtBP-E1A blk
CCCc1ccc(OCc2ccc(C(=O)N3CCN(c4ccccn4)CC3)o2)c(OC)c1	12	0.8	3.4	-3.9%[38.3 µM]	-13	-15
COC(=O)C(Sc1ccc(Cl)cc1)C1SC(=S)N(Cc2ccccc2)C1=O (stereo not given)	-1	-4.6	2.0	-1.7%	-2	4
COc1ccccc1C(=O)Nc1ccc2nc(SCC(=O)N3CCCc4ccccc43)sc2c1	50	·	3.0	-1.4%	·	·
CCCCn1c(C(C)NC(=O)CC)nc2ccccc21 (stereo not given)	8	-2.3	-0.3	0.1%	-1	2
COc1cccc(CSc2nnc(C(F)(F)F)n2Cc2ccc(F)cc2)c1	41	-2.4	1.3	2.8%[38.3 µM]	14	4
O=C1N=C(N2CCCC2)S/C1=C\C=C\c1ccccc1	3	-0.3	1.0	-0.3%	1	·
Cc1c(C(=O)NN)sc(=S)n1C	1	1.5	0.0	3.4%	2	-13
O=c1cc(CSc2ccccc2)[nH]c2ccc(F)cc12	22	·	2.2	0.8%	·	·
CCOC(=O)c1sc(NC(=O)c2nc3ncccn3n2)c(C(=O)OC)c1C	-8	·	0.4	3.7%	·	·
COc1ccc2ccccc2c1CN1CCN(C(=O)c2ccco2)CC1	-8	58*	-0.9	4.7%	?	0
CCN(CC)CCCNC(=O)Cc1c(C(=O)O)n(C)c2ccccc12	8	5.6	0.1	1.2%	3	·
O=C(CSCc1ccc(Cl)c(Cl)c1)Nc1c[nH]c(=O)[nH]c1=O	6	-1.3	-0.3	12%	-2	6
Cc1ccc(C)c(-n2nnc(-c3nc(-c4ccc(Cl)cc4)no3)c2N)c1	12	·	-0.5	3.3%	·	·
COC(=O)CCn1[nH]c(=O)c2ccccc2c1=O	-2	-2.2	-0.4	-1.0%	1	13
CCOC(=O)c1c(C)nc2sc3c(=O)n(-c4ccc(OC)cc4)nnc3c2c1-c1ccc(OC)cc1	13	-1.3	0.8	-0.1%	-18	-13
O=C1CCc2cc(NS(=O)(=O)c3ccc(F)cc3)cc3c2N1CC3	13	-0.9	0.3	2.7%	-10	-10
CCOc1ccc(NC(=O)C(=O)NCCc2csc(-c3ccc(C)cc3)n2)cc1	1	·	2.1	0.0%	·	·
COc1ccc(CCNC(=O)Cn2cnc3c2c(=O)n(C)c(=O)n3C)cc1OC	17	-0.5	0.5	-0.6%	4	-9
CCOc1cc(CNS(=O)(=O)c2cn(C)cn2)cc(OCC)c1OCC	-10	-1.1	0.7	-0.5%	10	0
CCOCCCNC(=S)N1CCCN(c2nc3c(C)c(C)ccc3cc2C#N)CC1	0	2.7	-0.2	-0.6%	18	14
O=C(CCC(C(=O)c1ccccc1)c1ccccc1)c1ccccc1 (stereo not given)	1	1.5	0.3	5.8%	29	2
CCOc1sc2nc(C)n(CC(=O)Nc3cccc(C)c3)c(=O)c2c1C	-5	·	-0.2	1.9%	·	·
Cc1ccc(C(=O)C[n+]2ccccc2C)cc1[N+](=O)[O-]	12	-2.5	0.3	0.6%	0	8
CCOc1cccc(-c2nnc(SCC(=O)Nc3cc(OC)cc(OC)c3)n2N)c1	-9	-2.7	1.3	-2.0%	1	6
CCCCn1c(=O)[nH]c(=O)c2c(C(=O)OCC)cc(-c3cccs3)nc21	13	-3.0	1.1	1.6%	-3	2
O=[N+]([O-])c1ccc2nc(NCCCO)nc(-c3ccccc3)c2c1	-16	3.5	0.6	1.6%	-19	-23
Oc1ccccc1Nc1nc(-c2ccccc2)c2cc(Cl)ccc2n1	-8	·	2.9	5.7%	·	·
COc1cc(CN2CC(=O)N(c3ccccc3Cl)C2=S)cc(OC)c1OC	43	?	0.7	1.4%	-7	-22
COc1ccccc1C(=O)N1CCN(C(=O)Cc2ccccc2)CC1	29	-3.7	-0.5	2.8%	2	5
N#C/C(=C/c1ccc(C(=O)O)cc1)C(=O)Nc1ccccc1	-4	2.3	0.1	2.4%	-5	-8

Some of the entries so far, with two lines to a compound.
The line under a structure holds: TRPML1 blocker | D2 ag | TRPML1 ag | PINK1 expr mod | Six1-Eya2 inh | CtBP-E1A blk
- O=[N+]([O-])c1ccc2nc(NCCCO)nc(-c3ccccc3)c2c1
  -16 | 3.5 | 0.6 | 1.6% | -19 | -23
- Oc1ccccc1Nc1nc(-c2ccccc2)c2cc(Cl)ccc2n1
  -8 | · | 2.9 | 5.7% | · | ·
- COc1cc(CN2CC(=O)N(c3ccccc3Cl)C2=S)cc(OC)c1OC
  43 | ? | 0.7 | 1.4% | -7 | -22

Carrying on.
SMILES	TRPML1 blocker	D2 ag	TRPML1 ag	PINK1 expr mod	Six1-Eya2 inh	CtBP-E1A blk
CN(C)C(=O)C1CC(=O)OC12CCCCC2 (stereo not given)	12	5.2	0.6	-0.2%	6	·
O=C(NCCOc1ccccc1)C1CCC(=O)N(CCN2CCOCC2)C1 (stereo not given)	-7	-3.0	0.0	0.1%	5	6
Cc1ccccc1NC(=O)N(C(C)C)C(C)C	8	-2.8	-0.3	2.1%	-3	16
O=C1CC(c2ccccc2)CC(=O)C1=CN1CCCC1 (stereo not given)	2	-1.0	1.6	-1.1%	0	0
O=C(NNc1nc2ccccc2s1)Nc1ccc(Cl)c(Cl)c1	7	-0.6	-0.2	7.0%	7	·
O=C(NC(=S)Nc1ccc2nc[nH]c2c1)c1ccccc1	6	10	-0.8	3.0%	-2	0
CCc1ccc(CN2C(=O)CCC2(C)C(=O)NC2CCCC2)cc1 (stereo not given)	7	-5.6	0.6	6.9%	5	-9
COc1ccc([N+](=O)[O-])cc1C1NN=C(c2ccccc2O)S1 (stereo not given)	-3	-1.8	-0.2	10.0%	8	3
Cc1ccc(S(=O)(=O)NCC(=O)N(CC2CCCO2)C(C(=O)NC2CCCC2)C(C)C)cc1 (stereo not given)	-6	-6.2	-1.4	0.7%	6	-2
COc1ccc(NC(=O)CCC(=O)OCc2ccc(Br)cc2)cc1	-2	-3.4	0.5	1.1%	4	1
CCOC(=O)c1nnn(-c2nonc2N)c1CNC(C)C	11	-1.3	-0.2	7.1%	2	4
O=C1CCCc2oc3ccc(O)cc3c21	47	1.4	0.4	-1.6%	5	0
Cc1ccc2ncc3c(-c4ccc(F)cc4)nn(-c4cccc(F)c4)c3c2c1	6	·	1.4	1.9%	·	·
CCOc1cc(NC(=O)C2CC2)c(OCC)cc1NC(=O)c1cc(OC)c(OC)c(OC)c1	2	0.0	-0.4	?	13	0
O=C(c1ccc(C(F)(F)F)cc1)C1CCCN(Cc2cccn2-c2ncccn2)C1 (stereo not given)	9	-3.7	0.2	7.2%	-7	-15
C#CCOCCOCCOCCNc1nc(N2CCN(C(=O)[C@H](CCC(=O)O)n3cc(CN)nn3)CC2)nc(N2CCN(C(=O)[C@H](CCC(=O)O)n3cc(CN)nn3)CC2)n1	25	-2.9	0.3	0.9%	-11	-3
Cc1c(NC(=O)CSc2nncc3ccccc23)c(=O)n(-c2ccccc2)n1C	-10	-3.9	-0.8	4.5%[38.3 µM]	-1	3
O=C(Cc1ccccc1)Nc1ccc(NC(=O)c2cccs2)c(Cl)c1	66	2.2	3.5	6.8%	1	-4
CCCCCCC(=O)Oc1cccc(N2C(=O)C3CCCCC3C2=O)c1 (stereo not given)	-1	7.2	1.1	-0.7%	11	·
O/N=C1\CC/C(=N\O)c2nn(-c3ccccc3Cl)nc21	3	2.0	0.6	-5.7%[38.3 µM]	2	5
NC(=O)c1ccc(N=Cc2c(O)ccc3ccccc23)cc1	0	-1.7	0.4	-1.2%	6	8
COc1cccc(/C=C(/C(=O)OCC(N)=O)c2ccccc2)c1	-6	-2.8	0.4	-1.4%	-7	-11
CCc1nc(N)nc(N)c1-c1ccc(N(C)Cc2ccccc2)c([N+](=O)[O-])c1	15	-2.6	15	-2.5%	-28	-24
O=C(Nc1cccn(Cc2ccc(F)cc2)c1=O)NC1CCCCC1	7	-2.1	0.7	-3.3%	-5	-5
COc1ccc2nc(NCCNC(=S)NCCCN3CCOCC3)c(C#N)cc2c1	10	-1.7	1.1	0.2%	-23	-25
Cc1ccc(/C=N/NC(=O)CSc2nc3ccccc3n2C)s1	-13	-7.5	-0.5	3.8%	-4	-1
O=C(c1cccc(S(=O)(=O)Nc2ccc(Br)cc2)c1)N1CCCC1	-8	0.6	1.0	-2.6%	-1	-3
CCOC(=O)C1(C)CCCN1C(=O)c1ccc(F)c(Cl)c1 (stereo not given)	·	-3.7	-0.6	0.6%	4	4
Cc1ccc(S(=O)(=O)N2CCN(C(=O)CC(C)n3cncn3)CC2)cc1C (stereo not given)	4	-0.3	-0.6	-2.0%	1	9
Cc1ccccc1Sc1ncnc2onc(C)c12	-9	0.7	1.6	-4.4%	13	0
O=C(O)c1n[nH]c2c1CCCCC2	2	1.0	1.1	1.9%	2	1
N#Cc1ccccc1NC(=O)C(=O)NCC(c1cccnc1)N1CCc2ccccc21 (stereo not given)	-20	·	1.2	0.2%	·	·
CCc1ccc(S(=O)(=O)Nc2ccc(-c3ccc(N4CCCCCC4)nn3)cc2)cc1	-10	·	-0.8	-0.2%	·	·
CCc1ccc(CNC(=O)CN2C(=O)CCn3nc(-c4cn(C)c5ccccc45)cc32)cc1	-3	·	0.1	6.3%	·	·
Cc1ccc(S(=O)(=O)N(C)c2ccc(OC(C)C(=O)N3CCCC3)cc2)cc1C (stereo not given)	-21	-2.7	1.3	-0.7%	5	0
COCCNC(=O)C1CCCN(Cc2ccc(C)cc2)CC1 (stereo not given)	·	-5.6	0.4	0.1%	5	-9
Cc1cccc(C(=O)N[C@H](C(=O)NCCc2ccc(S(N)(=O)=O)cc2)C(C)C)c1	4	-0.9	0.5	1.5%	3	4
Cc1cc(NC(=O)c2ccc(NC(=O)C(C)C)cc2)no1	-7	-0.6	-0.6	-0.2%	-10	-3
CCOc1ccc(/C=C/C(=O)Nc2sc3c(c2C(=O)OC)CCCC3)cc1	-20	·	1.9	-0.3%	·	·
CCOC(=O)C1(Cc2cccc(F)c2)CCN(C2CCOCC2)CC1	3	2.1	0.3	0.3%	-1	7
N/C(Cc1ccc([N+](=O)[O-])cc1)=N\OC(=O)C(c1ccccc1)c1ccccc1	9	12	2.9	·	-7	-3
Cc1c(-c2ccc(OCCN3CCOCC3)cc2)c(=O)oc2ccc3ccccc3c12	0	0.6	-0.2	1.6%	-2	5
O=C(COc1ccc(-c2ccccc2)cc1)N/N=C/c1cccnc1	-12	2.0	3.9	6.0%	0	·
COc1ccc(CN2C(=NC(=O)C3CCCCC3)SC3CS(=O)(=O)CC32)cc1 (stereo not given)	-11	-1.0	-0.5	7.0%	5	-11
S=C1NC[C@H](CC2CCCCC2)N1CC1CCCCC1	-14	-5.2	2.0	0.6%	-24	·

High-throughput results: PubChem, National Center for Advancing Translational Sciences (NCATS)
